Screening data: PubChem, Broad Institute
Yeast UUG start: alters start codon recognition fidelity in yeast; activity score, % at 18.7 µM; S. cerevisiae UUG-firefly luciferase reporter, luminescence/redox ratio; 0.13% of 350,000 active;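 active = replicate mean at a twofold rise or more, about +100% in these data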;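 note: firefly luciferase made from a UUG start codon reports start codon fidelity; reporter light over untreated wells divided by growth signal over untreated wells; some hits fall short of that in this replicate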
HIV Env fusion: inhibitors of HIV Env-mediated cell fusion. 1.1% of 360,000 active. HeLa-JRFL Env/CEM21 cell fusion, luciferase. inhibition, % at 12.3 µM;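 active = mean replicate inhibition score of at least 50 and every replicate individually at or above 50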;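 note: 0% = plate neutral controls and 100% = maraviroc near 300 nM; one replicate is shown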
* = called active by the depositor; & = joins results of further samples; [ ] = another dose, or the depositor's remark.

Order of values – Yeast UUG start	HIV Env fusion
- CNC[C@@H]1OCCCC[C@@H](C)Oc2ccc(N(C)C)cc2C(=O)N([C@H](C)CO)C[C@H]1C
  -7.4	6.3[16.7 µM]
- Cc1noc(C)c1S(=O)(=O)N(C)C[C@H]1Oc2ccc(NC(=O)Nc3ccc4c(c3)OCO4)cc2CC(=O)N([C@@H](C)CO)C[C@@H]1C
  -2.6	-0.8[16.7 µM]
- Cc1noc(C)c1S(=O)(=O)Nc1ccc2c(c1)C(=O)N([C@@H](C)CO)C[C@@H](C)[C@@H](CN(C)C)OCCCC[C@@H](C)O2
  -2.0	10.8[16.7 µM]
- Cn1cnc(S(=O)(=O)N[C@H]2C=C[C@H](CC(=O)Nc3ccccc3)O[C@H]2CO)c1
  -10.2	3.1[16.7 µM]
- C/C=C/c1cnc2c(c1)C(=O)N([C@@H](C)CO)C[C@@H](C)[C@@H](CN(C)S(=O)(=O)c1ccccc1)O2
  1.2	-2.4[16.7 µM]
- C[C@@H]1CN([C@@H](C)CO)C(=O)c2cccc(NC(=O)C3CC3)c2O[C@H]1CN(C)Cc1ccc(C(=O)O)cc1
  19.6	7.4[16.7 µM]
- O=C(C[C@H]1CC[C@@H]2[C@H](COC[C@H](O)CN2Cc2ccc3c(c2)OCO3)O1)Nc1ccc(-c2ccccc2)cc1
  -8.0	-8.0[16.7 µM]
- COc1ccc(NC(=O)N(C)C[C@H]2Oc3c(NS(=O)(=O)c4ccc(C)cc4)cccc3C(=O)N([C@@H](C)CO)C[C@@H]2C)cc1
  15.0	1.0[16.7 µM]
- COc1ccccc1NC(=O)N[C@@H]1CC[C@H](CCn2cc(-c3ccccc3OC)nn2)O[C@@H]1CO
  1.7	-29.9[16.7 µM]
- CC(C)NC(=O)N(C)C[C@H]1OCc2cn(nn2)CCCC(=O)N([C@@H](C)CO)C[C@@H]1C
  -11.5&-3.7	-0.2[16.7 µM]
- C[C@H](CO)N1C[C@H](C)[C@@H](CN(C)Cc2ccc(C(F)(F)F)cc2)OCCCC[C@H](C)Oc2ccc(NC(=O)CCCN(C)C)cc2C1=O
  14.6	-20.1[16.7 µM]
- Cc1noc(C)c1S(=O)(=O)N(C)C[C@H]1Oc2ccc(NS(=O)(=O)c3cccs3)cc2CC(=O)N([C@H](C)CO)C[C@@H]1C
  13.9	-20.8[16.7 µM]
- O=C(C[C@H]1C[C@H]2c3cc(NS(=O)(=O)c4ccc(F)cc4)ccc3O[C@H]2[C@@H](CO)O1)N1CCCCC1
  4.9	5.1[16.7 µM]
- Cc1noc(C)c1S(=O)(=O)N(C)C[C@H]1Oc2ccc(NS(=O)(=O)c3ccccc3)cc2CC(=O)N([C@@H](C)CO)C[C@@H]1C
  -0.9	-3.2[16.7 µM]
- C[C@H](CO)N1C[C@H](C)[C@@H](CN(C)C(=O)CN(C)C)Oc2ncc(C#Cc3cccnc3)cc2C1=O
  -3.6	4.1[16.7 µM]
- C[C@@H]1CN([C@H](C)CO)C(=O)Cc2cc(NC(=O)Cc3cn(C)c4ccccc34)ccc2O[C@@H]1CN(C)S(=O)(=O)c1ccccc1
  -14.6	17.8[16.7 µM]
- Cc1noc(C)c1NC(=O)N(C)C[C@@H]1OCCCC[C@@H](C)Oc2ccc(NS(C)(=O)=O)cc2C(=O)N([C@H](C)CO)C[C@H]1C
  9.7	-4.4[16.7 µM]
- CCCNC(=O)C[C@@H]1CC[C@@H]2[C@@H](COc3ccc(NC(=O)c4ccc(Cl)cc4)cc3C(=O)N2C)O1
  -9.4	8.0[16.7 µM]
- CC(C)NC(=O)Nc1cccc2c1O[C@H](CN(C)C(=O)Nc1cccc3ccccc13)[C@H](C)CN([C@H](C)CO)C2=O
  11.2	-18.7[16.7 µM]
- COc1ccccc1-c1cnc2c(c1)C(=O)N([C@H](C)CO)C[C@@H](C)[C@@H](CN(C)Cc1cccc(F)c1)O2
  -2.2	18.9[16.7 µM]
- C[C@H]1CN([C@@H](C)CO)C(=O)Cc2cc(NC(=O)Nc3cccc4ccccc34)ccc2O[C@H]1CN(C)C(=O)Nc1cccc2ccccc12
  -10.8	26.1[16.7 µM]
- O=C(C[C@@H]1C[C@H]2c3cc(NC(=O)CC4CC4)ccc3O[C@H]2[C@@H](CO)O1)NCc1ccccn1
  -23.8	-1.1[16.7 µM]
- C[C@H](CO)N1C[C@H](C)[C@H](CN(C)C(=O)Nc2ccc3c(c2)OCO3)Oc2ccc(NC(=O)CCN3CCOCC3)cc2CC1=O
  -2.3	11.2[16.7 µM]
- COc1ccccc1-c1ccc2c(c1)O[C@H](CN(C)CC1CCOCC1)[C@H](C)CN([C@H](C)CO)S2(=O)=O
  18.8	1.7[16.7 µM]
- C[C@@H]1CN([C@H](C)CO)C(=O)c2cc(NC(=O)Cc3ccccc3)ccc2O[C@@H](C)CCCCO[C@@H]1CN(C)S(=O)(=O)c1ccc(F)cc1
  2.5	-9.1[16.7 µM]
- O=C(C[C@H]1CC[C@H](NC(=O)Nc2ccccc2F)[C@H](CO)O1)NCc1ccc(Cl)cc1
  3.2	6.7[16.7 µM]
- C[C@@H]1CCCCO[C@H](CN(C)S(=O)(=O)c2ccc(F)cc2)[C@@H](C)CN([C@@H](C)CO)C(=O)c2cc(NS(=O)(=O)c3cccs3)ccc2O1
  -5.6	-4.1[16.7 µM]
- CC(C)NC(=O)Nc1ccc2c(c1)C(=O)N([C@@H](C)CO)C[C@H](C)[C@@H](CN(C)C(=O)Nc1ccc(F)cc1)OCCCC[C@H](C)O2
  -6.2	4.0[16.7 µM]
- C[C@@H]1CN([C@H](C)CO)S(=O)(=O)c2ccc(C#CC3CCCC3)cc2O[C@@H]1CN(C)S(C)(=O)=O
  9.2	15.1[16.7 µM]
- Cc1ccc(S(=O)(=O)N[C@@H]2CC[C@@H](CCNC(=O)C3CC3)O[C@H]2CO)cc1
  -3.2	3.8[16.7 µM]
- C=CCNC(=O)[C@@H]1[C@H]2C(=O)O[C@H](c3ccccc3)[C@H](c3ccccc3)N2[C@H](c2ccccc2OCCO)[C@@]12C(=O)N(C(=O)OCCOC)c1ccc(C#Cc3ccc(OC)cc3)cc12
  -21.6	-6.8[16.7 µM]
- COc1cccc(S(=O)(=O)Nc2ccc3c(c2)C(=O)N(C)C[C@@H](OC)[C@@H](C)CN[C@H](C)CO3)c1
  -9.4	-3.7[16.7 µM]
- C/C=C/c1ccc2c(c1)O[C@@H](CN(C)Cc1ccncc1)[C@H](C)CN([C@@H](C)CO)S2(=O)=O
  -10.7	12.6[16.7 µM]
- O=C(Cc1ccccn1)NCC[C@@H]1CC[C@H](NC(=O)Nc2ccccc2)[C@H](CO)O1
  16.0	-4.7[16.7 µM]
- O=C(Nc1ccccc1F)N[C@@H]1CC[C@@H](CCNC(=O)C2CCC2)O[C@@H]1CO
  1.1	16.2[16.7 µM]
- COc1cccc(NC(=O)N(C)C[C@H]2Oc3cc(-c4cccc(C(=O)N(C)C)c4)ccc3S(=O)(=O)N([C@@H](C)CO)C[C@@H]2C)c1
  24.2	-25.6[16.7 µM]
- C[C@@H]1CN([C@@H](C)CO)C(=O)c2cccc(NC(=O)Nc3ccc4c(c3)OCO4)c2O[C@@H]1CN(C)C(=O)Nc1ccc(F)cc1
  -5.7	-48.4[16.7 µM]
- COc1cccc(S(=O)(=O)N[C@@H]2C=C[C@@H](CC(=O)NCc3ccncc3)O[C@H]2CO)c1
  -24.4	-5.4[16.7 µM]
- Cc1noc(C)c1S(=O)(=O)N(C)C[C@H]1Oc2ccc(NC(=O)C3CC3)cc2CC(=O)N([C@H](C)CO)C[C@@H]1C
  24.4	-60.3[16.7 µM]
- COc1ccccc1NC(=O)N[C@@H]1CC[C@@H](CC(=O)N[C@@H](C)c2ccccc2)O[C@@H]1CO
  -3.9	-1.0[16.7 µM]
- O=C(C[C@@H]1C=C[C@H](NC(=O)C2CCOCC2)[C@H](CO)O1)NCC1CCCCC1
  -11.5	-1.5[16.7 µM]
- Cc1noc(C)c1S(=O)(=O)Nc1ccc2c(c1)C(=O)N([C@@H](C)CO)C[C@@H](C)[C@@H](CN(C)Cc1ccncc1)OCCCC[C@@H](C)O2
  12.2	11.8[16.7 µM]
- COc1ccc(S(=O)(=O)Nc2ccc3c(c2)CC(=O)N([C@@H](C)CO)C[C@@H](C)[C@H](CN(C)S(=O)(=O)c2ccc(C)cc2)O3)cc1
  -5.2	37.6[16.7 µM]
- CC(C)C#Cc1ccc2c(c1)O[C@H](CN(C)Cc1cccnc1)[C@H](C)CN([C@H](C)CO)S2(=O)=O
  6.0	13.5[16.7 µM]
- O=C(CN1CCOCC1)N[C@@H]1CC[C@@H](CCn2cc(C3CC3)nn2)O[C@@H]1CO
  -7.6	-13.8[16.7 µM]
- COCC(=O)N(C)C[C@@H]1Oc2ncc(C#CCC3CCCC3)cc2C(=O)N([C@@H](C)CO)C[C@H]1C
  17.8	18.3[16.7 µM]
- CN1CCN(C(=O)C[C@H]2CC[C@H](NS(=O)(=O)c3cccc(F)c3)[C@H](CO)O2)CC1
  -8.9	-5.6[16.7 µM]
- COCC(=O)N(C)C[C@H]1Oc2cc(C#CCC(C)C)ccc2S(=O)(=O)N([C@@H](C)CO)C[C@@H]1C
  0.4	17.6[16.7 µM]
- CCNC(=O)C[C@H]1CC[C@@H]2[C@@H](COc3ccc(NC(=O)Nc4ccc(F)cc4)cc3C(=O)N2C)O1
  -4.7	-7.8[16.7 µM]
- CCC(=O)N(C)C[C@H]1Oc2cc(C#CC3CC3)ccc2S(=O)(=O)N([C@H](C)CO)C[C@H]1C
  6.2	8.8[16.7 µM]
- O=C(NCC[C@@H]1CC[C@H](NC(=O)C2CCCCC2)[C@@H](CO)O1)Nc1ccc(Cl)cc1
  10.4	-10.5[16.7 µM]
- Cc1ccccc1CN(C)C[C@@H]1OCc2cn(nn2)CCCC(=O)N([C@H](C)CO)C[C@@H]1C
  -17.5	-9.1[16.7 µM]
- Cc1ccccc1-c1ccc2c(c1)O[C@@H](CN(C)C(=O)c1ccccn1)[C@@H](C)CN([C@@H](C)CO)S2(=O)=O
  4.3	-0.4[16.7 µM]
- C[C@H]1CCCCO[C@@H](CN(C)C(=O)Nc2ccc3c(c2)OCO3)[C@@H](C)CN([C@@H](C)CO)C(=O)c2cc(NC(=O)CCC(F)(F)F)ccc2O1
  14.4	12.3[16.7 µM]
- Cc1nccn1CCC(=O)NC1CCCc2c1cnn2-c1ccc(C(C)(C)C)cc1 (stereo not given)
  -17.1	-17.2
- COc1cccc(-c2cnc3c(c2)C(=O)N([C@H](C)CO)C[C@H](C)[C@H](CN(C)C(=O)Nc2ccccc2F)O3)c1
  14.4	37.7[16.7 µM]
- CC(C)NC(=O)N(C)C[C@@H]1Oc2cc(C#CCN(C)C)ccc2S(=O)(=O)N([C@H](C)CO)C[C@H]1C
  -0.3	-5.7[16.7 µM]
- C[C@@H]1CCCCO[C@H](CN(C)S(=O)(=O)c2ccccc2)[C@H](C)CN([C@@H](C)CO)C(=O)c2cc(NC(=O)c3ccccc3)ccc2O1
  -7.0	18.3[16.7 µM]
- COc1cccc(S(=O)(=O)Nc2ccc3c(c2)C(=O)N(C)[C@@H]2CC[C@@H](CC(=O)O)O[C@@H]2CO3)c1
  6.2	2.0[16.7 µM]
- C[C@@H]1CN([C@@H](C)CO)S(=O)(=O)c2ccc(-c3cccc(F)c3)cc2O[C@H]1CN(C)C(=O)Nc1cc(F)ccc1F
  25.3	-68.7[16.7 µM]

Single records (already shown):
`Cc1nccn1CCC(=O)NC1CCCc2c1cnn2-c1ccc(C(C)(C)C)cc1` (stereo not given) in the list: Yeast UUG start = -17.1; HIV Env fusion = -17.2
`COc1cccc(-c2cnc3c(c2)C(=O)N([C@H](C)CO)C[C@H](C)[C@H](CN(C)C(=O)Nc2ccccc2F)O3)c1` in the list: Yeast UUG start = 14.4; HIV Env fusion = 37.7[16.7 µM]

Additional structures.
SMILES	Yeast UUG start	HIV Env fusion
O=C(NCC[C@@H]1CC[C@@H](NS(=O)(=O)c2ccc(F)cc2)[C@H](CO)O1)Nc1ccc(F)cc1	-7.2	-3.3[16.7 µM]
CC(C)NC(=O)N(C)C[C@H]1Oc2ccc(NC(=O)CCN3CCOCC3)cc2C(=O)N([C@H](C)CO)C[C@H]1C	-13.7	5.0[16.7 µM]
CCCN(C)C[C@H]1OCCCC[C@@H](C)Oc2ccc(NC(=O)Nc3ccccc3)cc2C(=O)N([C@H](C)CO)C[C@@H]1C	3.1	-13.8[16.7 µM]
C[C@@H]1CCCCO[C@H](CN(C)Cc2ccc(Cl)c(Cl)c2)[C@@H](C)CN([C@H](C)CO)C(=O)c2cc(NC(=O)C3CCCCC3)ccc2O1	-0.9	4.4[16.7 µM]
O=C(NCC[C@H]1CC[C@H](NS(=O)(=O)Cc2ccccc2)[C@H](CO)O1)C1CC1	17.9	-16.4[16.7 µM]
O=C(NCC[C@@H]1CC[C@@H](NS(=O)(=O)c2cccc(F)c2)[C@@H](CO)O1)Nc1cc(F)ccc1F	-12.3	-6.3[16.7 µM]
CNC[C@H]1Oc2c(NC(=O)Nc3ccc4c(c3)OCO4)cccc2C(=O)N([C@H](C)CO)C[C@H]1C	4.2	-5.3[16.7 µM]
C[C@@H]1CN([C@H](C)CO)S(=O)(=O)c2ccc(-c3cncnc3)cc2O[C@H]1CN(C)C(=O)C1CCCCC1	19.6	-22.4[16.7 µM]
Cc1noc(C)c1NC(=O)Nc1ccc2c(c1)C(=O)N([C@@H](C)CO)C[C@@H](C)[C@H](CN(C)Cc1ccc(C(=O)O)cc1)OCCCC[C@@H](C)O2	-0.9	-18.7[16.7 µM]
C[C@@H]1CCCCO[C@H](CN(C)C(=O)CCC(F)(F)F)[C@@H](C)CN([C@@H](C)CO)C(=O)c2cc(NC(=O)CCC(F)(F)F)ccc2O1	49.4	-12.8[16.7 µM]

The list is partial (hit frequency here may not be typical).
